Bioassay records deposited in PubChem BioAssay by several laboratories.
WNV protease inh: inhibitors of WNV NS2B-NS3 protease, primary screen, biochemical, fluorogenic substrate; z-score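 (tested at a level between 10 and 100 µM)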; AID 577, 2007; Genome polyprotein (West Nile virus), P06935; 65,000 tested, 0.18% active; fluorogenic substrate Ex360/Em465; active compounds read low;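 active = z-score at -3 or under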;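 also: score is relative to mean and spread of the compound wells of a plate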
Target sequence (P06935 1371-1501 limits assumed): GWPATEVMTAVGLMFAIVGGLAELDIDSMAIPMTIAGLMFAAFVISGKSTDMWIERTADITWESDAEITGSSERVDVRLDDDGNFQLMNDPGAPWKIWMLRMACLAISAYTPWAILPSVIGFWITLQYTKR
Target sequence (P06935 1502-1679 limits assumed): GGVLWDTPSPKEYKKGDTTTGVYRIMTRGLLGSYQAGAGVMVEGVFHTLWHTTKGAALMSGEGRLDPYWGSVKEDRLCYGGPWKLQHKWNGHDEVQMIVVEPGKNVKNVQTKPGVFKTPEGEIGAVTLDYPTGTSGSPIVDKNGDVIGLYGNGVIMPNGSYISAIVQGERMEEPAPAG
Hsc70: Hsc70 inhibitors, probe displacement, primary screen, biochemical, fluorescence polarization (AID 568); 83,000 tested, under 10 active; displacement, % at 20 µM; hits with a dose series show IC50 in µM; Hsc70 fluorescence polarization, probe displacement; higher % means a stronger effect; strong numbers were not always called active;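 active = displacement above 50% without optical interference and an IC50 on retest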;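 also: ATPase domain with a fluorescein-tagged ATP probe; 0% = vehicle and 100% = excess ADP; read after one hour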
MT1-MMP promoter: inhibitors of MT1-MMP promoter transcription, cell-based, luciferase reporter, luminescence (AID 618); MT1-MMP promoter luciferase reporter cells, luminescence; calls from a first round at 10 µM; hits with a dose series show EC50 in µM; 87,000 tested, 0.62% active;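 active = over half of the reporter light lost at 10 µM or EC50 under 50 µM; inactive = the rest and hits that failed the dose series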;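 also: actives suppress MT1-MMP promoter-driven transcription so potencies describe inhibitors; HT1080 fibrosarcoma cells; overnight exposure; toxic or luciferase-blocking compounds were not removed from the actives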
Starred values were filed as active, the others as inactive; i = inactive; . = not tested or not shown.

Preview:
canonical_smiles,WNV protease inh,Hsc70,MT1-MMP promoter
O=C(c1cccc(C(=O)N2CCN(c3ncccn3)CC2)c1)N1CCN(c2ncccn2)CC1,0.41,1.6%,i
CCn1c(C)cc2c(c1=O)C(c1ccncc1)C(C#N)=C(N)O2 (stereo unspecified),1.61,-4.1%,i
CC(C)(C)N1C(=O)c2ccc(C(=O)Nc3nccs3)cc2C1=O,-1.15,5.1%,i

The list itself, from the first entry:
canonical_smiles,WNV protease inh,Hsc70,MT1-MMP promoter
O=C(c1cccc(C(=O)N2CCN(c3ncccn3)CC2)c1)N1CCN(c2ncccn2)CC1,0.41,1.6%,i
CCn1c(C)cc2c(c1=O)C(c1ccncc1)C(C#N)=C(N)O2 (stereo unspecified),1.61,-4.1%,i
CC(C)(C)N1C(=O)c2ccc(C(=O)Nc3nccs3)cc2C1=O,-1.15,5.1%,i
COCC(=O)Nc1cc(C)c2c(=O)oc3ccccc3c2n1,-0.42,1.2%,i
CCN(CC)CCN1C(=O)C(=O)/C(=C(/O)c2c(C)[nH]c(C(=O)OC)c2C)C1c1cccs1 (stereo unspecified),.,0.6%,i
C=CCN(c1ccc(C(=O)NCCc2ccccc2)cc1)S(C)(=O)=O,.,-3.6%,i
O=C(NCc1ccccc1)/C(=N\O)c1ccccc1,-0.36,4.0%,i
COc1ccc(/C(O)=C2\C(=O)C(=O)N(CC3CCCO3)C2c2cc(OC)ccc2OC)cc1 (stereo unspecified),-0.31,-2.6%,i
Cc1cc(NC(=O)c2cc3n(n2)C(C(F)(F)F)CC(c2ccc(Cl)c(Cl)c2)N3)no1 (stereo unspecified),0.18,0.4%,i
Cn1c(=O)c2c(nc(SCC(=O)N3CCc4ccccc43)n2Cc2ccccc2)n(C)c1=O,-0.38,-5.8%,i
COC(=O)c1ccc(NC(=O)C2CCCN2S(=O)(=O)c2ccc(C)cc2)cc1 (stereo unspecified),-0.04,2.0%,i
COCCNc1nc(C(C)(C)C)nc2c1nnn2Cc1ccccc1Cl,-0.89,-0.9%,i
O=C1NC(Nc2ccccn2)(C(F)(F)F)C(=O)N1c1ccc(F)cc1 (stereo unspecified),-0.32,-1.1%,i
Cc1cc(S(=O)(=O)N2CCN(c3ccc(F)cc3)CC2)c(C)s1,-0.27,1.4%,i
CC1(C)NC(=O)N(CC(O)COc2ccccc2C(=O)N2CCCCC2)C1=O (stereo unspecified),1.58,0.2%,i
CCOC(=O)c1cccc(NC(=O)C2CCN(S(=O)(=O)c3cnc[nH]3)CC2)c1,-0.49,-5.8%,i
CCOC(=O)N1CCC(NC(=O)CC(NS(=O)(=O)c2ccc(C)cc2)c2ccco2)CC1 (stereo unspecified),-0.3,-5.8%,i
CC(=O)Oc1ccc(-c2csc(Nc3cccnc3)n2)cc1,.,-0.4%,i
CCOc1ccc(S(=O)(=O)N2CCN(c3ccccc3)CC2)c2cccnc12,0.73,-0.9%,i
CC(C)(C)c1cc(NC(=O)c2cccnc2)no1,-1.15,8.8%,i

The list goes on:
canonical_smiles,WNV protease inh,Hsc70,MT1-MMP promoter
CC(=O)Nc1cccc(N2CCCC2=O)c1,-2.11,-4.7%,i
CCOc1ccc(NC(=O)COC(=O)Cn2cnnn2)cc1OCC,-0.43,-2.7%,i
CCOC(=O)c1ccc(NC(=O)Nc2cc(C)on2)cc1,0.65,3.8%,i
CCn1c(=O)cc(SCC(=O)Nc2ccccc2N2CCN(C)CC2)c2ccccc21,-0.95,1.5%,i
CCn1cc(Br)c(C(=O)Nc2ccc(Cl)c(Cl)c2)n1,.,-1.5%,i
O=C(CSc1nnc2c3cc(F)ccc3nc(-c3ccccc3)n12)N1CCOCC1,-1.13,0.9%,i
O=C(Nc1ccccc1C(=O)N1CCOCC1)C1COc2ccccc2O1 (stereo unspecified),-0.82,-5.4%,i
COC(=O)C(C(=O)OC)C(C(=O)OC)C(C(=O)OC)C(=O)OC,1.23,0.7%,i
O=C(Nc1ccccc1Cl)c1ccc(S(=O)(=O)N2CCOCC2)cc1,1.36,2.3%,i
Cc1cc(NC(=O)CCC(=O)N(Cc2ccco2)C(C(=O)NC2CCCCC2)c2ccccc2)no1 (stereo unspecified),.,-1.6%,i
Cc1ccc(CN2CCNC2=O)cc1,.,4.7%,i
CCOC(=O)c1cccc(NS(=O)(=O)c2c(C)[nH]c(=O)[nH]c2=O)c1,1.5,-4.2%,i
CC(c1nc2ccccc2o1)N1C(=O)c2ccccc2C1=O (stereo unspecified),.,4.0%,i
Cc1cc(C)c2c(=O)n(CC(=O)N3CCC(Cc4ccccc4)CC3)sc2n1,-0.27,-0.8%,i
COc1cccc(CN2CCN(c3cccc(C(F)(F)F)c3)CC2)c1OC,-0.34,-0.7%,i
O=C(O)CCn1c(=S)oc2ccccc21,.,4.3%,i
Cc1cc(C)n2c(SCc3c(C)noc3C)nnc2n1,1.75,0.0%,i
O=C(NCc1cccs1)N[C@@H](Cc1ccccc1)C(=O)O,-0.51,-1.6%,i
O=C(COC(=O)C1CC1)c1c[nH]c2ccccc12,0.47,4.2%,i
COc1ccc(Cc2nnc(NS(C)(=O)=O)s2)cc1,.,-2.2%,i

Quoted from the listing.
WNV protease inh result of CCOC(=O)c1cccc(NS(=O)(=O)c2c(C)[nH]c(=O)[nH]c2=O)c1 → 1.5
WNV protease inh result of Cc1cc(C)n2c(SCc3c(C)noc3C)nnc2n1 → 1.75
Hsc70 result of CCn1c(=O)cc(SCC(=O)Nc2ccccc2N2CCN(C)CC2)c2ccccc21 → 1.5%
WNV protease inh result of O=C(CSc1nnc2c3cc(F)ccc3nc(-c3ccccc3)n12)N1CCOCC1 → -1.13
WNV protease inh result of CCOC(=O)c1ccc(NC(=O)Nc2cc(C)on2)cc1 → 0.65

More compounds.
canonical_smiles,WNV protease inh,Hsc70,MT1-MMP promoter
O=C(CSCc1ccco1)c1ccc(Cl)s1,-0.41,-1.7%,i
CC(=O)Nc1ccccc1OCc1nnc(-c2cccs2)o1,0.4,-1.3%,i
O=C(c1cc(-c2cccs2)on1)N1CCCc2ccccc21,-0.75,-6.1%,i
O=C(CCN1CCCCC1)NCNC(=O)CCN1CCCCC1,0.71,0.2%,i
COc1ccc2[nH]c(=O)c(CNc3ccc(C)c(C)c3)cc2c1,.,2.7%,i
CC(C)=CCCC(C)NC(=O)NC1CCCCC1 (stereo unspecified),-0.31,-1.9%,i
Cc1csc(N)n1,.,-2.8%,i
Cc1onc(-c2ccccc2)c1C(=O)Nc1sc2c(c1C#N)CCC2,1.29,-15.7%,i
O=c1[nH]c(CS(=O)(=O)c2ccccc2)nc2ccccc12,-0.29,2.6%,i
CCOC(=O)c1ccc(Nc2nnc(C(C)(C)C)c(=O)[nH]2)cc1,0.74,5.1%,i
Cc1noc(C)c1COC(=O)COc1cccc2c1OC(C)(C)C2,-0.9,-3.1%,i
O=C1c2ccccc2C(=O)N1CCC(=O)N1CCCc2ccccc21,-0.29,4.7%,i
CCOC(=O)CC(=O)CSc1nc2nc(C)cc(C)n2n1,-0.6,-3.8%,i
O=C(Nc1cc(C(F)(F)F)ccc1N1CCOCC1)C1Cc2ccccc2CN1C(=O)c1ccco1 (stereo unspecified),-0.86,-2.0%,i
Cc1ccc(NC(=O)CSCc2c(C)noc2C)cc1C,-2,8.5%,i
CC1CCCC(C)N1S(=O)(=O)c1ccc(S(=O)(=O)NCCc2ccncc2)cc1 (stereo unspecified),.,1.3%,i
O=C(OCCN1C(=O)c2ccccc2C1=O)c1cccs1,1.27,-8.0%,i
Nc1nc2ccccc2nc1N1CCCC1,.,-1.2%,i
CCSc1nnc(Cn2c(=O)sc3ccccc32)n1-c1ccccc1C,0.00846,-1.9%,i
O=c1c2cc(N3CCOCC3)ccc2[nH]c(=S)n1CCCN1CCCCCC1,0.07,4.3%,i

(further entries)
canonical_smiles,WNV protease inh,Hsc70,MT1-MMP promoter
O=C(CC1OC(=O)c2ccccc21)Nc1ccccc1N1CCOCC1 (stereo unspecified),1.09,3.4%,i
Cc1ccccc1CN1C(=O)CSc2ccc(C(=O)N3CCOCC3)cc21,-0.58,2.5%,i
COC(=O)c1ccc(C2/C(=C(\O)c3cccc(OC)c3)C(=O)C(=O)N2CCCN(C)C)cc1 (stereo unspecified),-1.53,5.0%,i
CCCNc1nc2c(c(=O)n(C)c(=O)n2C)n1Cc1cccc(C)c1,0.72,7.9%,i
CC(CC(=O)Nc1ccncc1)c1ccccc1 (stereo unspecified),0.81,0.7%,i
COc1ccc(CCNC(=O)CCN2C(=O)C3CC=CCC3C2=O)cc1OC (stereo unspecified),0.1,-1.1%,i
CCCCn1c(SCC2CCCO2)nc2cc(S(N)(=O)=O)ccc21 (stereo unspecified),.,-5.3%,i
C/C(=C1/SC(N2CCOCC2)=NC1=O)c1ccc(Br)cc1,-0.16,0.2%,i
CC(C)N(Cc1nc(-c2ccccc2)no1)C(=O)C(C)(C)C,-0.14,-5.8%,i
Cc1c(S(=O)(=O)N2CCN(c3cccc(C(F)(F)F)c3)CC2)c(=O)n(C)c(=O)n1C,-1.11,6.3%,i
Cc1cc(C)nc(N2CCCC(C(=O)Nc3cc(F)ccc3C)C2)n1 (stereo unspecified),0.89,0.0%,i
O=C(NCc1ccc(Cl)cc1)c1cc(-c2cccs2)on1,-0.65,-3.7%,i
C=CCOc1c(Cl)cc(/C=N/O)cc1OC,0.85,-3.2%,i
CCCOc1ccc2c3c(c(=O)oc2c1)CCCC3,0.3,-1.3%,i
CCCN1C(=O)C(NC(C)=O)c2ccccc21 (stereo unspecified),.,-7.2%,i
COc1ccc(Cc2nnc(NC(=O)Cc3cccs3)s2)cc1,-1.75,-30.8%,i
Cc1ccc(-c2nc3ccccc3c(=O)n2CCCN2CCOCC2)cc1,-0.81,-1.6%,i
CCC(=O)N1CCCc2cc(S(=O)(=O)NCc3cccs3)ccc21,0.99,3.9%,i
CN(C)CCNC(=O)C(C(=O)c1ccccc1)n1ccccc1=O (stereo unspecified),-0.1,-5.7%,i
CCC(C)c1ccc(-c2cc(C(=O)OCC(=O)Nc3cc(C)on3)c3ccccc3n2)cc1 (stereo unspecified),.,-5.9%,i

(list continues)
canonical_smiles,WNV protease inh,Hsc70,MT1-MMP promoter
CC(Sc1ccc(Br)cc1)C(N)=O (stereo unspecified),-0.41,-3.8%,i
NC(=O)c1ccccc1O,.,-1.9%,i
Cc1ncc(CC(=O)n2cc(C(=O)c3cc(F)ccc3O)cn2)s1,.,4.4%,i
Fc1cccc(CN2CCN(c3ncccn3)CC2)c1,1.23,-4.0%,i
COc1ccc(-n2c(Cc3cc(=O)[nH]c(=O)[nH]3)nnc2SCC(=O)Nc2ccccc2)cc1,-0.7,5.1%,i
Cc1cc2n(n1)C(c1ccc3c(c1)OCO3)Nc1c(C)cccc1-2 (stereo unspecified),-0.05,5.9%,i
COc1ccc2c(c1)CCc1c(C(=O)NCc3ccco3)noc1-2,-0.53,14.0%,i
Nc1nc(Sc2ccc(C(F)(F)F)cc2[N+](=O)[O-])n[nH]1,.,3.2%,i
Cc1cc(C)c2cc(CN(CCN3CCCC3)C(=O)Nc3ccc(F)cc3)c(=O)[nH]c2c1,-1.16,-5.5%,i
COC(=O)CCC(=O)COc1ccccc1C#N,-0.15,-1.2%,i
O=C(CCc1nc2ccccc2[nH]1)N1CCc2ccccc2C1,-0.21,-4.8%,i
COc1ccccc1OCCCCNC(C)(C)C,-0.2,-1.4%,i
O=C1C=C(NCc2ccco2)C2(CCCCC2)O1,-0.4,2.9%,i
Cc1[nH]c(=O)[nH]c(=O)c1CSc1nnc(CCCCCNC(=O)OC(C)(C)C)o1,0.8,3.4%,i
O=C(C(NS(=O)(=O)c1cccs1)c1ccccc1)N1CCN(c2ccccc2F)CC1 (stereo unspecified),.,0.6%,i
CC(C)NC(=O)CN(Cc1ccccc1)S(=O)(=O)c1ccccc1,1.52,-8.4%,i
Cc1cc(C(=O)CSc2nc3ccccc3[nH]2)c(C)n1C,0.53,-0.3%,i
CC(C)(C)c1ccc(OCC(O)CS(=O)(=O)c2ccccn2)cc1 (stereo unspecified),-0.79,-6.2%,i
CS(=O)(=O)N(CC(=O)NCCC1=CCCCC1)C1CCCCC1,-0.59,-7.7%,i
CCOc1ccc(C(=O)NCc2ccncc2)cc1OCC,1.91,-7.1%,i

(listing goes on)
canonical_smiles,WNV protease inh,Hsc70,MT1-MMP promoter
Cc1cc(C(=O)OCC(=O)c2ccc(Br)s2)no1,2.57,-9.6%,i
CCN(CC)S(=O)(=O)c1ccc2oc(C(=O)NC3CCCc4ccccc43)c(C)c2c1 (stereo unspecified),.,-0.4%,i
Cc1ccc(-c2csc3nnc(SCC(=O)N4CCN(Cc5ccccc5)CC4)n23)cc1,-0.84,0.3%,i
O=C(O)CCn1cnc2ccccc2c1=O,-1.11,-4.3%,i
CC1(C(=O)NC2CCCC2)CCC(=O)N1Cc1ccccc1 (stereo unspecified),0.78,-3.3%,i
